# Source: PubChem
# TDP1 cell CPT: growth inhibition of DT40 Tdp1-/-;hTDP1 cells with camptothecin (screen for TDP1 inhibitors). Potency, µM (highest dose often 46.2 µM), for inactives: at the top dose activity change, negative = growth inhibition, most hits filed as inhibitors. 420,000 tested, 12% active. chicken DT40 Tdp1-/-;hTDP1 cells + 20 nM CPT, ATP luminescence, 48 h; note: nearly all actives have a fitted effect of over 55% in size
#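 Chicken DT40 Tdp1-/- cells complemented with human TDP1, 400 cells/well, exposed to compounds plus 20 nM camptothecin for at least 48 h at 37 C; viability read as ATP content by CellTiter-Glo luminescence.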
# GCN5L2 inh: inhibitors of human GCN5L2 histone acetyltransferase | GCN5L2 HAT assay, ThioGlo1 CoA-SH fluorescence | Potency, µM (top dose mostly 58.9 µM), inactives show top-dose activity change, negative = inhibition, most hits filed as inhibitors | 390,000 tested, 0.21% active | AID 504327
# Target sequence (Q92830 whole entry, looked up): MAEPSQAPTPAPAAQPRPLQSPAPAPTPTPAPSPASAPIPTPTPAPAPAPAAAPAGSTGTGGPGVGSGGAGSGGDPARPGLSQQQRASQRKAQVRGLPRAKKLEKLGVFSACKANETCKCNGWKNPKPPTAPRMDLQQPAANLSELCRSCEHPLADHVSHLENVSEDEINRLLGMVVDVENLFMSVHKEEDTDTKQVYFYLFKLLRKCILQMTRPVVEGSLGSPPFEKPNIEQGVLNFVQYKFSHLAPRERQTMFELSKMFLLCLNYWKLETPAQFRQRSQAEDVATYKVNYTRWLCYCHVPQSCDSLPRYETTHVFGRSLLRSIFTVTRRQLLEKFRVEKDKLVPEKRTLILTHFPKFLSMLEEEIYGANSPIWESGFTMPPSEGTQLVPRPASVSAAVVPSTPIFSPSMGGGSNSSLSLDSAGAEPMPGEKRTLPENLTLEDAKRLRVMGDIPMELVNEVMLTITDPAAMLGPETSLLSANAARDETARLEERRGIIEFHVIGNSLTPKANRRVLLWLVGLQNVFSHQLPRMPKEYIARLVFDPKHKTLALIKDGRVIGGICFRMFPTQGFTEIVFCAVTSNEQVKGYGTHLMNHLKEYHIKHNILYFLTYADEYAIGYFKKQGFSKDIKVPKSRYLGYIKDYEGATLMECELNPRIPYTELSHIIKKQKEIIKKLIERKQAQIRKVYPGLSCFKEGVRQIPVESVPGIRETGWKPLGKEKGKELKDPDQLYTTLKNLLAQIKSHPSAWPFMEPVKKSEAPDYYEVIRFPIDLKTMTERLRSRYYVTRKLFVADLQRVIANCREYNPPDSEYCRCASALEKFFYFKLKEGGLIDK
#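 Compounds, pin-transferred from DMSO stocks, meet 20nM GCN5L2 for 15 min before the reaction begins with H3(1-25) peptide (75uM) and acetyl-CoA (70uM). Thiol-reactive ThioGlo1 reports CoA release over 20 min at room temperature.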
# Active calls of the source: *; ? = inconclusive; . = no result given; [ ] = remark or other dose. Calls come from the whole dose curve; as a rule, active = well fitted curve in the direction sought with a large enough effect; inconclusive = small, poorly fitted or top-dose-only effect, or another doubt; inactive = no such curve, though single readings can be large; an effect the other way counts as inactive or inconclusive. % is set by controls: 0 for no effect and ±100 for the full control effect; potency is the fitted concentration of half-maximal effect.
SMILES,TDP1 cell CPT,GCN5L2 inh
COc1ccc(-c2nc(CN3CCC(C(=O)NCCN(CC(C)C)CC(C)C)CC3)c(C)o2)cc1OC,?,-3%
CCOc1ccccc1NC(=O)CCNC(=O)Cn1ccc2ccccc2c1=O,-14%,-7%
Cc1cc2nc(C)c(Cc3ccccc3)c(=O)n2[nH]1,-9%,-10%
COc1ccc(N2CCN(c3oc(-c4ccc(OC)c(OC)c4)nc3C#N)CC2)cc1,?,-6%
COC(=O)c1sc2cc(C(F)(F)F)cnc2c1-c1ccccn1,16%,-6%
Cc1ccc(NC(=O)Nc2nc3ccccc3s2)cc1NC(=O)Nc1nc2ccccc2s1,?,0%
COc1ccc2oc(=O)c(C(=O)NCCc3c(C)[nH]c4ccc(Br)cc34)cc2c1,.,-9%
Cc1cccc(NC(=O)CCC(=O)N/N=C/c2cccnc2)c1,3%,?
COc1ccc(S(=O)(=O)NCc2ccccn2)c(C)c1C,-14%,-2%
O=C(Nc1ccccc1)N1CCCC1,6%,?
O=C(Nc1c(-c2ccccc2)nc2ccccn12)c1ccco1,-6%,-12%
CCNc1nc(NC(C)C)nc(OCCOC(=O)c2ccccc2)n1,-18%,-6%
CN(C)CCNC(=O)c1ccc2nc(CCc3ccccc3)oc2c1,?,1%
Cc1cccc(SCC(=O)Nc2ccc3c(c2)OCCO3)c1,-5%,0%
C=CCN1C2CCCC1CC(NC(=S)Nc1ccc(Cl)cc1)C2 (stereo unspecified),23µM*,0%
O=C(CSc1nccn1Cc1ccc(Cl)cc1)Nc1nc2ccccc2s1,?,-6%
CCOc1ccccc1N1CCN(C(=O)c2cc(S(=O)(=O)N(C)C)ccc2N2CCCC2)CC1,?,3%
C[C@H](CO)N1C[C@H](C)[C@@H](CN(C)S(=O)(=O)c2cn(C)cn2)Oc2ccc(NS(=O)(=O)c3ccccc3)cc2C1=O,0%,0%
CC(C)(C)n1nnnc1C(c1cccnc1)N1CCN(c2ccccc2)CC1 (stereo unspecified),-11%,?
Cc1csc2nc(CN3CCN(CC(=O)N(C)C)CC3)cc(=O)n12,20%,1%
CC(NC(=O)c1ccc(F)cc1)C(=O)NC1=NCCS1 (stereo unspecified),-14%,-3%
CC(=O)Nc1ccc(NC(=O)C2C3C=CC(C3)C2C(=O)O)cc1 (stereo unspecified),21%,-6%
Clc1ccc(C(c2nnnn2C2CCCC2)N2CCSCC2)cc1 (stereo unspecified),-1%,-4%
O=C(O)CSCC(=O)Nc1ccc(Cl)cc1C(F)(F)F,2%,-3%
CCOc1ccc(CN2CCN(Cc3cnn(CC)c3C)CC2CCO)cc1 (stereo unspecified),?,-2%
CCN(CCCNC(=O)c1cc2c(=O)n(C)c3ccccc3c2s1)Cc1ccccc1,15µM*,-7%
COc1ccc(OC)c(NC(=O)c2cc(OC(C)=O)cc(C(=O)Nc3cc(OC)ccc3OC)c2)c1,?,-8%
O=C(Cn1cnc2c(cnn2-c2ccc(F)cc2)c1=O)NCCc1ccccc1,-17%,-2%
O=C1/C(=C/Nc2cccc([N+](=O)[O-])c2)CCc2ccccc21,-28%,-16%
COc1ccccc1-c1nnc(SCC(=O)NC2CC2)n1C,0%,0%
COC1C(C)=C(C)C(=O)N1Cc1ccccc1 (stereo unspecified),-3%,-8%
COc1ccccc1NC(=O)/C=C1\NC(=O)CS1,22%,0%
O=C(Cn1c(NCCO)nc2ccccc21)c1ccco1,-13%,1%
O=[N+]([O-])c1ccc(-[n+]2nc(-c3ccccc3)nn2-c2ccccc2)cc1,-1%,-3%
Cc1ccc(-c2nnc(-c3ccccc3)o2)cc1,-22%,0%
Cc1ccc(NC2c3ncccc3C(=O)N2C2CCCCC2)cc1 (stereo unspecified),-4%,-4%
NC(=O)[C@@H]1CCCN1C(=O)c1ccc2oc(CCc3ccccc3)nc2c1,-23%,0%
Cn1nccc1C(=O)OCC(=O)Nc1ccccc1,-10%,-6%
COC(=O)C1=C(C(=O)c2ccccc2)C(c2ccccc2)n2nnnc2N1 (stereo unspecified),37%[activator],-3%
COC(=O)c1cccc(NC(=O)CN2CCC(NC(=O)c3cc(OC)c(OC)c(OC)c3)CC2)c1,?,-3%
Cc1ccc(NC(=O)CN(C)C(=O)c2ccccn2)cc1,6%,3%
CSc1ccccc1NC(=O)c1cc(C2CC2)on1,?,-1%
Cc1c(NC(=O)COc2ccc3ccc(=O)oc3c2)c(=O)n(-c2ccccc2)n1C,-3%,-22%
O=C(CN1CCOCCOCCOCC1)Nc1ccccc1,-9%,-1%
Cc1ccc(C(=O)COC(=O)C2CCC2)cc1,?,1%
Cc1ccc(C)c(-n2c(CNC(=O)c3ccco3)nnc2SCC(=O)N2CCc3ccccc32)c1,?,-8%
COc1ccc(Cl)cc1NC(=O)c1ccco1,-9%,-5%
CCOC(=O)c1[nH]cnc1C(=O)Nc1ccc(Cl)cc1,-30%,-13%
CCNc1nc(-c2ccc(OC(F)F)cc2)c(C)s1,?,-3%
Cc1ccc(NC(=O)CCN2C(=O)NC3(CCCC3)C2=O)c(C)c1,-2%,0%
CCCOC(=O)c1ccc(Oc2c(-c3ccc(OCC)cc3O)n[nH]c2C)cc1,16µM*,-10%
CCC(=O)Nc1ccc2c(c1)ncn2-c1ccccc1C,-6%,3%
CCn1c(C)cc(O)c(C(=O)Nc2cccc(Cl)c2)c1=O,?,-6%
COc1cc(CNCc2cc(OC)ccc2OC)cc(OC)c1,?,-14%
O=C(COC(=O)c1cc(NS(=O)(=O)c2cccs2)ccc1O)Nc1ccccc1,-17%,-7%
O=C(O)c1ccccc1/C=N/NC(=O)C1CCCC1,1%,-1%
CCOc1ccc(-c2nnn(CC(=O)c3cc(OC)ccc3OC)n2)cc1,?,-2%
COc1ccc(OC)c(NC(=O)N2CCN(S(=O)(=O)c3ccc4c(ccn4C)c3)CC2)c1,.,-2%
CN(C(=O)CSc1nncn1-c1ccccc1)c1ccccc1,0%,0%
CCCOC(=O)c1ccc(S(N)(=O)=O)o1,7%,-2%

# Arranged by molar mass (high to low): some entries from above.
SMILES,TDP1 cell CPT,GCN5L2 inh
Cc1ccc(C)c(-n2c(CNC(=O)c3ccco3)nnc2SCC(=O)N2CCc3ccccc32)c1,?,-8%
COc1ccc(OC)c(NC(=O)N2CCN(S(=O)(=O)c3ccc4c(ccn4C)c3)CC2)c1,.,-2%
O=C(COC(=O)c1cc(NS(=O)(=O)c2cccs2)ccc1O)Nc1ccccc1,-17%,-7%
Cc1c(NC(=O)COc2ccc3ccc(=O)oc3c2)c(=O)n(-c2ccccc2)n1C,-3%,-22%
CCCOC(=O)c1ccc(Oc2c(-c3ccc(OCC)cc3O)n[nH]c2C)cc1,16µM*,-10%
CCOc1ccc(-c2nnn(CC(=O)c3cc(OC)ccc3OC)n2)cc1,?,-2%
Cc1ccc(NC(=O)CCN2C(=O)NC3(CCCC3)C2=O)c(C)c1,-2%,0%
CN(C(=O)CSc1nncn1-c1ccccc1)c1ccccc1,0%,0%
O=C(CN1CCOCCOCCOCC1)Nc1ccccc1,-9%,-1%
CCn1c(C)cc(O)c(C(=O)Nc2cccc(Cl)c2)c1=O,?,-6%
CCOC(=O)c1[nH]cnc1C(=O)Nc1ccc(Cl)cc1,-30%,-13%
CCNc1nc(-c2ccc(OC(F)F)cc2)c(C)s1,?,-3%
Cc1ccc(NC(=O)CN(C)C(=O)c2ccccn2)cc1,6%,3%
CCC(=O)Nc1ccc2c(c1)ncn2-c1ccccc1C,-6%,3%
O=C(O)c1ccccc1/C=N/NC(=O)C1CCCC1,1%,-1%
CCCOC(=O)c1ccc(S(N)(=O)=O)o1,7%,-2%

# Later entries.
SMILES,TDP1 cell CPT,GCN5L2 inh
Cc1ccc(C)c(N2N=C(C(=O)N(CC(C)C)c3c(N)n(Cc4ccccc4)c(=O)[nH]c3=O)CCC2=O)c1,29%,-24%
Cn1c2ccccc2c2cc(C(=O)OCC(=O)N3CC(=O)Nc4ccccc43)sc21,?,-6%
COc1ccc(/C(C)=N/OCC(=O)Nc2nc3ccccc3s2)cc1OC,?,-7%
COC(=O)C1CCN(c2ccc([N+](=O)[O-])cc2)CC1,0%,-8%
COc1cccc2cc(C(=O)N3CCC(C)CC3)c(=O)oc12,-3%,-8%
CCOC(=O)C1CCCCN1C(=O)/C(=C/c1ccc(OC)cc1)c1ccc(OC)c(OC)c1 (stereo unspecified),18µM*,-3%
O=C(COc1ncnc2ccc(Br)cc12)Nc1ccc(N2CCOCC2)cc1,-12%,-1%
Cn1c(SCC(=O)N2CCCC2)nc2cccnc21,17%,-2%
CCCCn1c(C)cc(/C=C(\C#N)C(=O)O)c1C,-5%,-10%
Nc1cc(N2CCCC2)ccc1[N+](=O)[O-],-13%,1%
CCOC(=O)CSc1nc2cc3c(cc2cc1C#N)OCCO3,0%,0%
CCN(CC(=O)Nc1ccccc1C(F)(F)F)C(=O)Cn1c(=O)cnc2ccccc21,-11%,3%
O=C(NC1CC2CCCC(C1)N2CC(=O)N1CCCc2ccccc21)C1CCCCC1 (stereo unspecified),-11%,1%
COc1ccc(O)c(/C=N/N2CCCCC2)c1,-2%,3%
COc1cc2c3c(c1)c(C1=NC(=S)NC1=O)c(O)n3C(C)(C)C=C2C,-26%,0%
O=C(CN1c2ccccc2Sc2ccccc21)N/N=C/c1ccccc1,?,-10%
CCCCOC(=O)c1ccc(Nc2ccc([N+](=O)[O-])cn2)cc1,4%,7%
CC(C)c1nnc(NC(=O)CN2C(=O)c3ccccc3C2=O)s1,3%,-3%
CCOC(=O)c1nc2nc(C)c(Cl)c(=O)n2[nH]1,-9%,-3%
CCCN1C(=O)C(O)(CC(=O)c2ccc(C(C)C)cc2)c2ccccc21 (stereo unspecified),?,11%
COc1ccccc1CNC(=O)COC(=O)c1ccc(C)s1,5%,-12%
COC(=O)Cc1cn(-c2ncc(C(F)(F)F)cc2Cl)c2ccccc12,0%,-10%
CCc1nnc(NC(=O)CC(CN(C)S(=O)(=O)c2ccccc2)c2ccccc2)s1 (stereo unspecified),?,2%
Cc1ccc(C(=O)Nc2ccccc2C(=O)O)cc1S(=O)(=O)NCc1ccccc1,-13%,-4%
Cc1cc2c(cc3c(SCc4nc(-c5ccccc5)oc4C)nnc(C)n32)o1,16µM*,0%
CC(C)(C)NS(=O)(=O)c1ccc(CCC(=O)N2CCCC2)cc1,-18%,-5%
O=C(c1cncs1)N1CCCC(CNS(=O)(=O)c2cccs2)C1 (stereo unspecified),0%,-13%
CC(=O)c1c(C)nc(C)nc1NC(=O)C(C)C,-5%,1%
CCOc1ccc(NC(=O)c2cccc(OC(=S)N3CCOCC3)c2)cc1,-4%,-5%
COc1ccc(-c2nc(NC(C)=O)sc2-c2ccccc2)cc1,?,2%
O=C(NN=C1CCCCC1)NC1CCCCC1,1%,4%
COC(=O)CCC(=O)OC1(C)C(=O)C=C2C=C(C3CC3)N(C3CCCC3)C=C2C1=O (stereo unspecified),-19%,-6%
COc1cccc(N2CCN(C(=O)c3ccc(CS(=O)Cc4ccc(C)cc4)o3)CC2)c1 (stereo unspecified),?,-3%
Cc1cccc(NC2SC(=O)N(CC(=O)O)C2=O)c1 (stereo unspecified),-29%,-4%
CC/C(=C1/C(=O)CC(C)(C)C(C(=O)OC)C1=O)N1CCCC1 (stereo unspecified),3%,-10%
O=S(=O)(c1cccc(-c2cn3cc(Cl)ccc3n2)c1)N1CCOCC1,?,-1%
CS(=O)(=O)NCCc1csc2nc(-c3ccccc3)nn12,-4%,0%
O=C(/C(=C(/[O-])c1ccccc1)[n+]1ccccc1)c1ccc([N+](=O)[O-])cc1,-5%,-1%
O=C(c1ccc(N2C(=O)c3ccccc3C2=O)cc1)N1CCCCC1,-6%,-6%
Cc1cccc(NC(=O)c2cc(S(=O)(=O)NCc3ccc4c(c3)OCO4)ccc2F)c1C,-7%,-1%
COc1ccc(-c2nc(C)c(CCNC(=O)C(=O)Nc3cccc(F)c3)s2)cc1OC,.,1%
Oc1ccccc1/C=C/c1noc(-c2ccccc2O)n1,-23%,-2%
O=C(CSc1nnc(SCC(=O)NCc2ccc3c(c2)OCO3)s1)NCc1ccc2c(c1)OCO2,-17%,2%
Cc1ccc(NC2=NCC(=O)N2C2CCCC2)c(C)c1,-20%,1%
COC(=O)c1ccccc1NC(=O)CSc1nncn1-c1cccnc1,-4%,-4%
CCCN(CC(=O)Nc1ccccc1C)C(=O)c1ccc(=O)n(Cc2ccccc2)n1,7%,-3%
COc1ccc(/C(O)=C2/C(=O)C(=O)N(c3ncccn3)C2c2ccc(OC)cc2)cc1 (stereo unspecified),-5%,-7%
O=C(NC1CC(=O)N(c2cccc(F)c2)C1)N1CCN(C(=O)c2ccco2)CC1 (stereo unspecified),3%,-7%
COc1cccc(S(=O)(=O)N2CCN(C(=O)c3ccco3)CC2)c1,?,19%

# A portion of the library; most or all hits stand in other tables.
